PINK1 modulator = PINK1 expression modulation. 410,000 compounds, 0.2% hits. PINK1 immunofluorescence, high-content cytometry, 24 h. Potency, µM (top dose mostly 76.6 µM), without a hit: top-dose activation (PINK1 increase), usual class: activators; active = well fitted activation curve with a large enough effect; inconclusive = small, poorly fitted or top-dose-only effect; inactive = flat fitted curve, though single readings scatter; cell line not stated here;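 note: potency is the fitted concentration of half-maximal effect; % of control where 0% means no effect; nearly all actives have a fitted effect of over 65% in size; a mitochondrial uncoupler was the plate control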
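Decision-based qHTS: stable cells, 24 h exposure to five compound concentrations, CCCP as control. Fixed cells stained for PINK1 plus nuclear, mitochondrial and cell markers, cytometer read.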
CtBP-E1A blk = inhibitors of CtBP/E1A interaction. activity change, % (concentration not given with the values). AID 651724. 340,000 compounds, 0.49% hits. AlphaScreen GST-E1A/His-CtBP binding, 1536-well; hits give low values; control for the full effect not named in the record; in the data active means activity change below about -65%; inconclusive means about -30% to -65%; inactive means above about -30%; note: % is set by controls: 0 for no effect and ±100 for the full control effect
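Protein mix (5X: 125 nM each GST-E1A, His-CtBP) was incubated with pinned compound 2 h at 37 deg C in dark, in 50 mM Tris pH 8.0 buffer with 300 mM NaCl. Glutathione donor and nickel acceptor beads followed; AlphaScreen signal read after 1 h.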
Six1-Eya2 inh = blocks human Six1 binding to Eya2 | activity change, % (concentration not given with the values) | AlphaScreen GST-Six1/His-Eya2 binding, biochemical; hits give low values; control for the full effect not named in the record | AID 651725 | 360,000 compounds, 0.56% hits; in the data active = activity change below about -65%; inconclusive = about -30% to -65%; inactive = above about -30%; note: % is set by controls: 0 for no effect and ±100 for the full control effect
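Six1/Eya2 binding was read as AlphaScreen signal after compounds were pinned into GST-Six1 plus His-tagged Eya2 (5X stock 250/500 nM) in pH 8.0 Tris/NaCl/TCEP buffer, beads added, then incubated 1 h, 37 C, dark.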
TRPV1 potentiator = enhances activation of the human vanilloid receptor TRPV1; TRPV1-expressing cells, Fluo-8 calcium influx, capsaicin EC20 potentiation; host cell line not named in the record; control for the full effect not named in the record; AID 540277; potentiation, % at 8.33 µM; 320,000 compounds, 0.02% hits; active means potentiation above 80%; inconclusive means 30% to 80%; inactive means below 30%; note: 0% is about no effect
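Fluo-8 calcium influx in TRPV1-expressing cells, kinetic read (ex 480/em 520 nm). Compound added and read 3 min for agonist activity, followed by capsaicin at EC20 final and 2 min further read for enhancement.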
D2 potentiator = potentiates the human D2 dopamine receptor allosterically; DiscoveRx D2 beta-arrestin cells, luminescence, 90 min; 100% = 57 uM dopamine signal; potentiation, % (no concentration beside the values); 360,000 compounds, 0.23% hits; active = potentiation of 50% or more; inconclusive = 30% to 50%; inactive = 30% or less;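 note: compound concentration not given in the record; tested on top of an EC20 dose of dopamine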
Target sequence (P14416 whole entry, looked up): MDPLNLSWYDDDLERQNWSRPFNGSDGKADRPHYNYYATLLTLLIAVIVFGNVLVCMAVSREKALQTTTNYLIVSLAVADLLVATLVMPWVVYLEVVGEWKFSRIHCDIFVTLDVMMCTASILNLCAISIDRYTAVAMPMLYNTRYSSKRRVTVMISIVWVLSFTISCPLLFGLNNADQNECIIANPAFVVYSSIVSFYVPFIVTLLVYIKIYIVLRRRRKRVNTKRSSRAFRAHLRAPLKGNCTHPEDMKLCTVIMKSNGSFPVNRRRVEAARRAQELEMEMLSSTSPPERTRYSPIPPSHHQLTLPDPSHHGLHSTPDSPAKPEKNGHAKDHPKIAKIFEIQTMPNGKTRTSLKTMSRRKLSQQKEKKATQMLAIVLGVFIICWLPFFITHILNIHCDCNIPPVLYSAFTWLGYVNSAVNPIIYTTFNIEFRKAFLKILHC
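PathHunter beta-arrestin assay in DiscoveRx D2 cells. Compounds were added with an EC20 of dopamine (50 nM final) for 90 min at 37 deg C. Luminescence was read 1 h after detection reagent, with 57 uM dopamine as the EC100 control.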
Sfp inh = blocks B. subtilis Sfp PPTase activity | Q9F4F7 | Biochemical Sfp PPTase activity, qHTS | Potency, µM, without a hit: max response, negative = inhibition, most hits filed as inhibitors | 310,000 compounds, 3.5% hits | AID 1490; active = well fitted inhibition curve with a large enough effect; inconclusive = small, poorly fitted or top-dose-only effect, or another doubt; inactive = no such curve, though single readings can be large or run the other way;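 note: the enzyme is Sfp with the accession as filed and its product quenches rhodamine fluorescence; potency is the fitted concentration of half-maximal effect; 0% = enzyme reaction without inhibitor and -100% = no enzyme wells; top concentration of the series not given in the record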
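Step 1, compound plus 15 nM Sfp-PPTase, 15 min, room temperature. Step 2, add rhodamine-CoA (5 uM) and BHQ-2-YbbR (12.5 uM). Step 3, read 525/598 nm fluorescence at 0 and 30 min.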
D2 ag = human D2 receptor agonism in beta-arrestin assay; AID 624465; DiscoveRx PathHunter D2 beta-arrestin, luminescence, 90 min; 100% = 57 uM dopamine signal; activation, % (concentration not given with the values); 360,000 compounds, 0.084% hits; P14416; in the data active = activation above about 40%; inconclusive = about 15% to 40%; inactive = below about 15%; note: the text of the record calls up to 30% inactive
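Agonist mode: compounds alone added to overnight-plated D2 PathHunter cells for 90 min at 37 C, with 57 uM final dopamine (EC100) defining full response. Beta-arrestin recruitment detected by chemiluminescent reagent, read after 1 h at ambient temperature.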
* marks the source's active call; other numbers are inactive results; ? = inconclusive; / = not tested or not shown; [ ] = remark or other dose.

Order of values: TRPV1 potentiator | D2 potentiator | D2 ag | Sfp inh | PINK1 modulator | Six1-Eya2 inh | CtBP-E1A blk
> Cc1cc(C)n(-c2ccc(C(=O)NC3CCCCC3)cc2)n1
    -11 | -7 | -4.3 | 11% | -0.3% | -2 | -5
> Cc1ccc(CS(=O)(=O)c2nsc(C)c2C#N)cc1
    -7 | -4 | 4.3 | 16% | -0.3% | 6 | 1
> COc1ccc(Oc2c(C)nc(SCC(=O)c3ccc(Cl)cc3)[nH]c2=O)cc1
    -3 | -7 | -2.3 | 22% | -0.1% | -1 | 3
> Cc1oc2cc3oc(=O)c(CC(=O)O)c(C)c3cc2c1-c1ccccc1
    0 | -8 | 4.5 | -6% | -1.0% | 11 | /
> Fc1ccc(C2c3cccn3CCN2C(=S)Nc2cccc(Br)c2)cc1 (stereo unspecified)
    -2 | 3 | -0.7 | 6% | ? | -7 | -1
> CN(C)C(=O)CCc1ccc2c3c([nH]c2c1)[C@]1(CCc2ccccc2)[C@@H](C(=O)N2CCCCC2)C[C@H](CC(=O)NCc2ccco2)C(=O)N1CC3
    / | / | 2.5 | / | 2.1% | -3 | 0
> CC(C)(C)c1nc(CN2CCOCC2)cc(CN2CCOCC2)c1O
    -11 | -31 | -4.4 | 8% | -1.2% | -10 | 0
> COC(=O)c1c(C)[nH]c(C(=O)C(C)OC(=O)c2ccco2)c1C (stereo unspecified)
    2 | 2 | 3.4 | / | 0.5% | -1 | /
> CCC(C)c1ccccc1NC(=O)CN(C)CCOc1ccc(Cl)cc1 (stereo unspecified)
    7 | -1 | 4.6 | -13% | 13% | 2 | 19
> CCc1ccc(NC(=O)COC(=O)Cn2cnc3ccccc32)cc1
    6 | 7 | -4.4 | / | 0.4% | -2 | 5
> CN(CC(=O)Nc1ccccc1Cl)C(=O)Cn1cnc2ccc(Cl)cc2c1=O
    ? | -10 | -2.6 | / | 14% | 7 | -2
> Cc1ccc(C(=O)N/C(=C/c2ccco2)C(=O)N2CCCCC2)cc1
    -29 | -10 | -0.4 | -3% | -0.4% | -5 | 2
> C=CCNC(=O)c1ccc(CSc2nc3ccccc3s2)cc1
    -6 | 1 | 1.2 | 9% | -0.6% | -1 | -4
> COc1ccc(C2=NN(C(=O)c3ccccc3)C(c3cccc([N+](=O)[O-])c3)C2)cc1 (stereo unspecified)
    4 | -4 | -4.4 | -1% | 0.2% | -4 | /
> O=C(CN1C(=O)NC2(CCCCCC2)C1=O)NCc1ccccc1Cl
    / | 2 | -2.7 | / | -0.7% | 3 | 8
> Cc1oc(-c2cccc(Cl)c2)nc1CS(=O)(=O)CC(=O)NCc1ccco1
    4 | 2 | -2.4 | 6% | 0.0% | 1 | -2
> CCOCC(=O)Nc1c(C(=O)Nc2ccccc2OC)oc2ccccc12
    ? | -7 | -2.3 | 4% | 17%[38.3 µM] | 2 | 6
> Cc1ccc(NC(=O)c2nc[nH]c2C(=O)N[C@@H](C)c2ccccc2)cc1
    15 | -10 | -4.0 | 17% | 5.3% | -6 | -6
> N#C/C(=C1/CCCCCN1)c1nc2ccccc2[nH]1
    -9 | -15 | -0.3 | ? | 0.4% | -11 | -8
> Cc1ccc(S(=O)(=O)N2[C@@H](c3ccc(C(C)(C)C)cc3)C(C(=O)O)=CC[C@H]2c2cccs2)cc1
    / | -4 | 2.3 | / | -1.4% | -2 | -23
> Cc1ccc(C(C)C)c(OCC(=O)Nc2sc3c(c2C#N)CC(C)(C)NC3(C)C)c1
    4 | -7 | -2.2 | 13% | ? | 2 | -2
> COc1cc(O)c(C=Nc2ccccc2NS(=O)(=O)c2ccc(C)cc2)c(OC)c1
    / | -23 | 0.1 | / | 1.6% | 10 | -15
> BrC(=C\c1ccccc1)/C=N/N1CCN(c2ccccc2)CC1
    -5 | -8 | -2.9 | 45µM* | 1.7% | -13 | -26
> COc1ccccc1/C=C/C(=O)OCC(=O)N1CCc2ccccc21
    14 | -1 | -2.2 | / | 0.9% | 1 | -28
> O=C(NCc1ccccc1Cl)c1ccc2c(c1)OCO2
    -13 | 0 | -0.9 | 8% | -0.9% | -5 | -3
> COc1cccc(C(=O)C2CCCN(C(=O)c3ccccc3Cl)C2)c1 (stereo unspecified)
    -4 | -10 | -1.2 | 7% | -1.5% | -1 | 1
> CC1CCN(S(=O)(=O)c2ccc(C(=O)Nc3ncccc3O)cc2)CC1
    -18 | -11 | -7.5 | 1% | 4.0% | -9 | -3
> Cc1ccc(-n2ccnc2SCC(=O)O)c(C)c1
    -5 | 8 | -4.1 | -7% | -1.3% | -2 | 10
> c1ccc(CNc2nc(-c3ccccn3)nc3ccccc23)cc1
    -19 | -42 | -9.8 | -26% | ? | ? | -77*
> CC(C)(C)n1nnnc1C(c1ccccc1)N1CCN(CCN2CCOCC2)CC1 (stereo unspecified)
    / | / | / | / | 0.4% | -4 | 5
> CCCCN(C)C(=O)c1cc2cc3ccc(OC)cc3nc2s1
    -5 | -5 | -2.2 | -3% | -0.8% | -1 | 0
> Cc1nnc(NC(=O)c2ccc(S(=O)(=O)N(C)Cc3ccccc3)cc2)o1
    8 | -1 | -1.6 | 29% | 0.6% | -21 | -28
> CC(=O)Nc1ccc(NC(=O)COC(=O)CCCc2c[nH]c3ccccc23)cc1
    7 | -9 | -4.6 | / | -1.7% | -3 | ?
> CN(Cc1ccccc1)C(=O)c1cccc(NC(=O)Cc2ccc([N+](=O)[O-])cc2)c1
    / | 0 | 4.1 | / | 0.9% | -7 | -3
> CCCCOCCCNC(=O)C[C@@H]1C[C@@]2(C(=O)OC)CCCCC=C2N(Cc2ccc(Cl)cc2Cl)C1=O
    / | / | / | / | 7.2% | 1 | 2
> O=C(OCC(=O)N1CCCC1=O)c1ccc(O)cc1O
    -3 | -8 | -1.7 | / | -0.6% | 5 | -2
> COCCn1nnnc1C(c1cccc(C#N)c1)N1CCCCCC1 (stereo unspecified)
    -6 | -9 | -4.2 | 5% | 3.6%[38.3 µM] | 10 | -1
> Cc1cccc(C)c1NC(=O)CN1CCN(C(=O)CN2C(=O)NC3(CCCCC3C)C2=O)CC1 (stereo unspecified)
    -15 | 5 | 0.7 | / | 0.6% | 5 | -17
> CC(=O)Nc1cccc(NC(=O)CS(=O)(=O)c2cn(CC(=O)N(C(C)C)C(C)C)c3ccccc23)c1
    7 | -3 | 3.2 | -17% | -0.5% | 5 | 4
> Cc1nc2c(C(=O)N3CCCCC3)cnn2c(C)c1Cc1ccccc1F
    0 | -5 | -4.2 | -11% | 0.6%[38.3 µM] | 0 | -5
> CC(=O)c1ccccc1NC(=O)COC(=O)CCC1CCCC1
    / | -1 | 14 | / | 0.4% | 53 | 62
> CCOc1ccc(C(=O)Nc2cc(S(=O)(=O)Nc3ccccc3Cl)ccc2N2CCOCC2)cc1
    12 | 1 | -2.2 | -9% | -0.9% | -11 | -20
> CC1CC(C)CN(C(=O)c2ccc(N3CC4CC(C3)c3cccc(=O)n3C4)c([N+](=O)[O-])c2)C1 (stereo unspecified)
    14 | -13 | -0.8 | 9% | 5.1% | 4 | -7
> CC1CN(C(=O)CCC(=O)NCCCN2CCN(Cc3ccccc3)CC2)c2cc(Cl)ccc2O1 (stereo unspecified)
    -4 | -34 | -12 | 11% | 5.2% | -3 | -7
> COc1ccccc1-c1csc(C(O)c2ccc(F)c(F)c2)n1 (stereo unspecified)
    / | 2 | -3.0 | / | 8.1% | 0 | 7
> CCN(CC)S(=O)(=O)c1cccc(C(=O)N[C@H](C(=O)Nc2nc3ccc(F)cc3s2)C(C)C)c1
    23 | -11 | -2.1 | 6% | 10% | -8 | -3
> COc1ccc(NC(=O)CNc2cccc(S(=O)(=O)N3CCCCCC3)c2)c([N+](=O)[O-])c1
    1 | -4 | 2.5 | / | 1.1% | -22 | ?
> COc1ccc2c(c1)[nH]c(=O)c1sc3ccccc3c12
    -3 | -9 | -4.3 | -4% | 3.7% | ? | ?
> Cc1cc2nn(-c3ccccc3)nc2cc1NC(=O)c1cccs1
    -4 | -10 | -0.7 | 11% | 13%[38.3 µM] | 9 | 8
> CCOC(=O)CSc1[nH]c2cc(OC)ccc2c1[N+](=O)[O-]
    1 | -11 | -4.2 | -4% | 0.7% | 1 | 5
> CC(=O)C1=NOC(CNc2ncc(C(F)(F)F)cc2Cl)C1 (stereo unspecified)
    -13 | -2 | -3.2 | 17% | 1.3% | -1 | 3
> COc1ccc(CN2CCC(C)(Oc3cccc(F)c3)C2)c2ccccc12 (stereo unspecified)
    / | 2 | 7.0 | / | 14% | 8 | -14
> O=C(N[C@@H]1C/C=C\C[C@H](CC(=O)N(CCO)Cc2ccccc2)C(=O)N[C@@H](Cc2c[nH]c3ccccc23)COC1=O)OCC1c2ccccc2-c2ccccc21
    / | / | -3.4 | / | 0.1% | -4 | 0
> O=S1(=O)CC(N2CCC(Cc3ccccc3)CC2)CN1CCc1ccccc1 (stereo unspecified)
    / | -8 | -4.7 | / | 1.3% | 0 | -3
> CC(C)(C)c1ccc(C2=CC(c3ccccc3)n3ncnc3N2)cc1 (stereo unspecified)
    / | -13 | -4.1 | / | 1.8% | 4 | /
> Cn1cnnc1SCC(=O)c1ccc2c(c1)OCO2
    24 | 13 | 1.0 | 9% | -0.4% | 1 | 6
> CCCCN(C)c1c(C)nc2ccc(C(=O)N(C)CCN(C)C)cn12
    / | -12 | -3.6 | / | 0.3% | -4 | -16
> CCOc1ccccc1NC(=O)/C=C/c1ccc(S(=O)(=O)N2CCOCC2)cc1
    0 | -8 | -1.4 | / | -0.5% | -2 | -22
> CCCN(CC1CC1)C(=O)CSc1ncnc2sc(C)c(C)c12
    -15 | -19 | -2.1 | -22% | 1.3%[38.3 µM] | 1 | 7
> Cc1ccc(C)c(NC(=O)CCc2c(C)nn(-c3ccc(N4CCCCC4)nn3)c2C)c1
    10 | 4 | 0.2 | 19% | 1.3% | 4 | 7
